From PubChem
TRPV1 potentiator: HTS Assay for Compounds that Act as Potentiators of the Vanilloid Receptor 1; 0.02% of 320,000 active; potentiation, % at 8.33 µM; TRPV1-expressing cells, Fluo-8 calcium influx, capsaicin EC20 potentiation; host cell line not named in the record; control for the full effect not named in the record; Transient receptor potential cation channel subfamily V member 1 (Homo sapiens), Q8NER1; active means potentiation above 80%; inconclusive means 30% to 80%; inactive means below 30%; also: 0% is about no effect
Target sequence (Q8NER1 whole entry, looked up): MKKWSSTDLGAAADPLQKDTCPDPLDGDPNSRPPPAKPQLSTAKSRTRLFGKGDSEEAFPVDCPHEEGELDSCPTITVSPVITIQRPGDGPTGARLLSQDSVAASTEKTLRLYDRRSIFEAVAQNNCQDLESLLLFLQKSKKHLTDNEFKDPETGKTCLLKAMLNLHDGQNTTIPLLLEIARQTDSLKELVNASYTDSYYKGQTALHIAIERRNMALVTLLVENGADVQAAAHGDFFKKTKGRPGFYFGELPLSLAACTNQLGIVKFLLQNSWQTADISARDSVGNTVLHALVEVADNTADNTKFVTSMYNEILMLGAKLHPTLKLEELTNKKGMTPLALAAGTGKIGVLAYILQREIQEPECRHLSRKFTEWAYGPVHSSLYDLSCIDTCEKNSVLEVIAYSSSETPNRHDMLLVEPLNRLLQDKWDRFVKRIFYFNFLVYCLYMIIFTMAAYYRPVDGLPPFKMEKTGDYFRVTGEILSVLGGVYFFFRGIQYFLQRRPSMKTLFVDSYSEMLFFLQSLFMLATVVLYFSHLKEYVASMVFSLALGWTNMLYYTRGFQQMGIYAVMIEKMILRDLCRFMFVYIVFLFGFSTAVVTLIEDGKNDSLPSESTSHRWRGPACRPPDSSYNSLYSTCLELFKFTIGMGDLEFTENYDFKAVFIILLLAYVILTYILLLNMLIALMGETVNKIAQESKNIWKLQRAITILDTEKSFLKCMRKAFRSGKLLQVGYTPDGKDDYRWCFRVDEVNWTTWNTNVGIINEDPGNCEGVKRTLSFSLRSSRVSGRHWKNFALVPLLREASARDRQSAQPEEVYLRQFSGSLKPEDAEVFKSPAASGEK
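Fluo-8 calcium influx in TRPV1-expressing cells, kinetic read (ex 480/em 520 nm). Compound added and read 3 min for agonist activity, followed by capsaicin at EC20 final and 2 min further read for enhancement.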
CtBP-E1A inh: qHTS Assay for Inhibitors of the CtBP/E1A Interaction; 0.49% of 340,000 active; activity change, % (concentration not given with the values); CtBP / adenovirus E1A interaction (AlphaScreen); AlphaScreen GST-E1A/His-CtBP binding, 1536-well; stronger effect = lower value; control for the full effect not named in the record; in the data active means activity change below about -65%; inconclusive means about -30% to -65%; inactive means above about -30%; also: % is scaled to controls: 0 for no effect and ±100 for the full control effect
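Steps: dispense buffer (Tris pH 8.0, NaCl 300 mM, TCEP 1 mM, BSA, Tween 20); add 5X protein mix (GST-E1A, His-CtBP, 125 nM each); pin 23 nL compound; 2 h at 37 °C, dark; add 5X beads (50 ug/mL); 1 h; read.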
Six1-Eya2 inh: qHTS Assay for Inhibitors of the Six1/Eya2 Interaction; 0.56% of 360,000 active; Homeobox protein SIX1 (Homo sapiens) + Protein phosphatase EYA2 (Homo sapiens), …; AID 651725, 2012; AlphaScreen GST-Six1/His-Eya2 binding, biochemical; stronger effect = lower value; control for the full effect not named in the record; activity change, % (concentration not given with the values); in the data active = activity change below about -65%; inconclusive = about -30% to -65%; inactive = above about -30%; also: % is scaled to controls: 0 for no effect and ±100 for the full control effect
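GST-Six1 + His-Eya2 (5X stock: 250/500 nM); Tris pH 8.0, 300 mM NaCl, 0.05% BSA, 0.02% Tween 20; GSH donor/Ni acceptor beads; 1 h 37 °C dark; AlphaScreen readout.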
TRPML1 blocker: qHTS for Inhibitors of the Human Mucolipin Transient Receptor Potential 1 (TRPML1) | Mucolipin-1 (Homo sapiens), Q9GZU1 | TRPML1-inducible cells, Ca2+ dye fluorescence, FDSS; stronger effect = lower value; inhibition of EC80 agonist-evoked calcium signal | activity change, negative = inhibition, % (no concentration beside the values) | 0.02% of 390,000 active; in the data active means activity change below about -50%; inconclusive means about -30% to -50%; inactive means above about -30%;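 also: stimulus is agonist 54-4 at its EC80 concentration; % is scaled to controls: 0 for no effect and ±100 for the full control effect; compound concentration not given in the record; the text of the record puts the active cut at -80%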
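Tet-induced TRPML1-DL cells loaded with Ca8 no-wash calcium dye were read kinetically on FDSS. Compound addition was followed by EC80 agonist 54-4 (4 uM final); inhibition was read over 110 s.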
TRPML1 agonist: qHTS for Agonists of the Human Mucolipin Transient Receptor Potential 1 (TRPML1); 0.12% of 410,000 active; activation, % (test concentration not listed); Mucolipin-1 (Homo sapiens), Q9GZU1; AID 624414, 2012; TRPML1-expressing cells, Ca2+ dye fluorescence, FDSS; host cell line not named in the record; reference of the full effect not given here; in the data active = activation above about 50%; inconclusive = about 30% to 50%; inactive = below about 30%; also: 0% is about no effect; the text of the record puts the active cut at 80%
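In this qHTS format, compounds were pin-transferred onto Ca8-dye-loaded TRPML1-DL cells induced with Tet overnight, and intracellular Ca2+ fluorescence was recorded kinetically for 110 s after a 10 s baseline. A subsequent 4uM final 54-4 (EC80) addition followed by a second 110 s read served as the antagonist phase.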
D2 potentiator: Beta-Arrestin HTS for Positive Allosteric Modulators of the Human D2 Dopamine Receptor: Potentiators; DiscoveRx D2 beta-arrestin cells, luminescence, 90 min; 100% = 57 uM dopamine signal; potentiation, % (concentration not given with the values); 0.23% of 360,000 active; active = potentiation of 50% or more; inconclusive = 30% to 50%; inactive = 30% or less;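 also: compound concentration not given in the record; tested on top of an EC20 dose of dopamine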
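PathHunter beta-arrestin assay in DiscoveRx D2 cells. Compounds were added with an EC20 of dopamine (50 nM final) for 90 min at 37 deg C. Luminescence was read 1 h after detection reagent, with 57 uM dopamine as the EC100 control.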
Starred values were filed as active, the others as inactive; ? = inconclusive; . = not tested or not shown; & = joins results of further samples.

SMILES	TRPV1 potentiator	CtBP-E1A inh	Six1-Eya2 inh	TRPML1 blocker	TRPML1 agonist	D2 potentiator
O=C(Cn1nc(-c2ccccc2)c2ccccc2c1=O)NCCN1CCOCC1	0	2	3	-4	0.9	-8
CCOc1ccccc1C1CC(=O)NC(SCC(=O)Nc2nccs2)=C1C#N (stereo not given)	3	9	5	6	0.4	-11
COc1cc(C2N(Cc3ccccc3)CCN2Cc2ccccc2)ccc1OC(C)=O	15	2	-2	2	0.9	-2
CC1CN(c2ccc(Cl)cc2[N+](=O)[O-])CCN1S(C)(=O)=O (stereo not given)	0	.	-14	29	4.3	-6
CCNC(=O)C1(C)CCN1CCC(=O)c1ccc(C)cc1 (stereo not given)	.	1	-2	.	-0.7	-6
COCCNc1nc(NCc2ccc(C(C)C)cc2)c2sccc2n1	.	-5	-3	.	-0.7	-10
CCN(C1=NS(=O)(=O)c2ccccc21)N(CC)S(=O)(=O)c1ccc(C)cc1	10	-1	-2	14	1.9	-1
CC(C)n1nc(C(=O)Nc2nnc(SCc3c(Cl)cccc3Cl)s2)c2ccccc2c1=O	18	-25	14	2	0.9	-13
O=C(NC1CC1)C1=C[C@@H](c2coc3ccccc3c2=O)C[C@@H](OCc2ccc(CO)cc2)O1	29	7	1	-12	0.7	2
O=C(CN1CCN(c2ccccc2)CC1)N1N=CCC1c1ccccc1 (stereo not given)	.	-7	9	16	-0.5	-19
C=CC[C@H](CC(=O)OC(C)(C)C)C(=O)OC[C@H]1CCCN1C(=O)[C@@H](CC=C)CC(=O)N(CCO)Cc1ccccc1	.	4	-10	-1	0.2	-13
CCCc1c(C(=O)N/N=C/c2cccc3ccccc23)nnn1-c1nonc1N	3	28	22	-17	0.2	0
CCn1c(SCC(=O)N(C)C2CCS(=O)(=O)C2)nnc1-c1ccccc1 (stereo not given)	?	-1	6	4	0.0	-2
CCOc1ccc2nc(N3CCCC(C(=O)NC4CCCC4)C3)sc2c1 (stereo not given)	-6	1	1	24	2.8	-7
CCc1nnc(NC(=O)CSc2nnc(C(C)NC(=O)c3ccccc3F)n2C)s1 (stereo not given)	7	-1	2	9	-1.1	-10
CS(=O)(=O)c1ccc(C(=O)N2CCN(Cc3ccccc3)CC2)cc1	1	.	8	28	-0.6	-6
O=C(NCCC1=CCCCC1)C1CCN(S(=O)(=O)N2CCCC2)CC1	-7	7	6	-8	-0.3	-3
CC(OC(=O)c1cccc(S(=O)(=O)Nc2cccc(C(F)(F)F)c2)c1)C(=O)Nc1ccc2c(c1)OCCO2 (stereo not given)	-7	3	-8	-1	-0.5	12
COC(=O)c1cccc(-n2sc3ccccc3c2=O)c1	-1	-11	-14	5	0.7	-22
Cc1cc(C)c(C)c(S(=O)(=O)NCC(=O)N2CCCC2)c1C	4	7	2	2	-0.7	0
COc1ccc(S(=O)(=O)N2CCOCC2)cc1NC(=O)CSc1cccc[n+]1[O-]	9	3	27	29	0.6	-5
COc1ccc(-c2nnn(CC(=O)Nc3ccc4c(c3)OCCO4)n2)cc1OC	-5	-8	1	23	0.3	-2
COc1ccccc1C1C(C(=O)c2cc3ccccc3o2)=C(O)C(=O)N1CCN(C)C (stereo not given)	1	-2	13	0	1.0	-13
O=C(CS(=O)(=O)Cc1ccccc1)Nc1ccccc1Cl	-8	.	1	-15	-1.3	-2
Cc1onc(C(=O)/C=C/N(C)C)c1C(=O)Nc1nccs1	-8	1	-3	0	-0.7	-4
CCN(Cc1ccccc1)C(=O)c1cccs1	.	1	0	-3	0.2	-9
CCN(CC)C(=O)C1CCN(Cc2cn(C)nc2-c2ccc(Oc3ccccc3)cc2)CC1	2	.	-5	43	-0.6	-2
O=C(CSc1nnc2ccc(-c3ccncc3)nn12)c1cccs1	-8	-7	-6	26	0.7	0
Cc1cc(=O)n2nc(N3CCCC(C(=O)NC4CCC(C)CC4)C3)sc2n1 (stereo not given)	1	-9	5	7	-1.1	-10
CC(C)CNS(=O)(=O)c1ccc(OCC(=O)Nc2ccc3c(c2)OCCO3)cc1	4	3	-1	-5	-0.4	0

Record cards (already shown). Order of screens: TRPV1 potentiator	CtBP-E1A inh	Six1-Eya2 inh	TRPML1 blocker	TRPML1 agonist	D2 potentiator
Results for `CCN(Cc1ccccc1)C(=O)c1cccs1` : .	1	0	-3	0.2	-9
Results for `COc1ccccc1C1C(C(=O)c2cc3ccccc3o2)=C(O)C(=O)N1CCN(C)C` (stereo not given) : 1	-2	13	0	1.0	-13
Results for `CS(=O)(=O)c1ccc(C(=O)N2CCN(Cc3ccccc3)CC2)cc1` : 1	.	8	28	-0.6	-6
Results for `COc1ccc(S(=O)(=O)N2CCOCC2)cc1NC(=O)CSc1cccc[n+]1[O-]` : 9	3	27	29	0.6	-5
Results for `Cc1cc(C)c(C)c(S(=O)(=O)NCC(=O)N2CCCC2)c1C` : 4	7	2	2	-0.7	0

Continued:
SMILES	TRPV1 potentiator	CtBP-E1A inh	Six1-Eya2 inh	TRPML1 blocker	TRPML1 agonist	D2 potentiator
CCOC(=O)C1(C)CCCN(C(=O)c2cc(F)ccc2C)C1 (stereo not given)	.	-4	-3	.	-1.2	0
O=C(CNC(=O)c1ccccc1F)NC1=NCCS1	3	1	4	12	-0.5	-10
CCOc1ccccc1NS(=O)(=O)c1cc2c3c(c1)C(C)C(=O)N3CCC2 (stereo not given)	-3	4	-2	5	0.1	-9
CCCc1nn(-c2ccccc2)c2c1C(c1cccs1)C(C#N)=C(N)O2 (stereo not given)	10	-4	3	15	-0.5	-7
C/C=C(\C)C(=O)O[C@H](c1cc2ccc(=O)oc2cc1OC)[C@@H](O)C(C)(C)O	1	-5	1	-2	-0.4	-14
NC(=O)CC(NC(=O)Cc1ccc(Br)cc1)c1ccc(N2CCC(Cc3ccccc3)CC2)c([N+](=O)[O-])c1 (stereo not given)	-13	-19	-2	2	-1.0	-8
COc1ccc(C(=O)Nc2ccc3c(c2)nc(CN2CCCC2)n3C)cc1	5	-5	-2	8	-0.2	-6
COc1cccc(C(=O)C2CCCN(Cc3cn(C)nc3-c3ccccc3)C2)c1 (stereo not given)	16	3	-5	9	-0.6	-14
Cc1nc(=O)c(-c2ccccc2)c(C)n1Cc1ccccc1	0	7	12	-17	0.4	0
COc1cc(/C=N/NC(=O)c2ccccn2)ccc1OC(=O)c1ccccc1Br	5	0	2	24	1.0	6
COc1ccc(NC(=O)CSc2nnnn2C2CCCC2)c(OC)c1	25	-9	-1	22	0.4	-33
O=C(Nc1ccccc1)c1cnc[nH]1	4	2	3	29	0.5	0
COc1ccc2ccc3cccc[n+]3c2c1	.	-20	-4	-19	1.1	-2
O=C(NN1C(=O)c2ccccc2NC1c1ccccc1OCc1ccccc1)c1ccncc1 (stereo not given)	-15	5	2	2	-0.1	-9
CN(C)N=C1c2cc(S(=O)(=O)N3CCOCC3)ccc2-c2ccc(S(=O)(=O)N3CCOCC3)cc21	8	-2	-7	-15	-0.4	0
O=C(c1cc(COc2c(F)cccc2F)on1)N1CCC(c2ccncc2)CC1	-14	1	-1	1	-0.1	9
O=C1C(C=NC2CC2)=C(O)c2ccccc21	-7	2	-2	13	-0.5	-1
CCOC(=O)c1cnc(=O)[nH]c1C	8	2	5	8	-1.2	-4
Cc1ccc2nc(-c3ccc(NC(=O)C(C)N4C(=O)c5ccccc5C4=O)cc3)sc2c1 (stereo not given)	2	-1	3	47	0.0	-20
CC1=C(C(=O)OCc2ccccc2)C(c2ccccc2)NC(=O)N1 (stereo not given)	1	.	-1	15	-0.3	53*
COC(=O)c1ccc(/C=N/OCC(=O)NCCc2ccc(OC)c(OC)c2)cc1	-1	9	0	7	-1.2	1
CCOC(=O)Cc1nnc(NC(=O)CSc2nnc3c4ccccc4n(C)c3n2)s1	-3	-2	?	0	0.2	-11
COc1ccccc1N1CCN(C(=O)CSc2nc(C)cc(=O)[nH]2)CC1	-11	2	-1	10&-3	-0.6&0.3	-18
CC(C)n1c(C(F)(F)F)nc2cc(C(=O)N3CCCCC3)ccc21	2	5	3	59	-0.7	-7
CC1(C)Cc2ccccc2C(=NC(Cc2c[nH]c3ccccc23)C(=O)O)N1 (stereo not given)	14	1	0	10	0.2	-1
CCCCn1c(N)c(N(CC(C)C)C(=O)c2ccc(N3C(=O)c4ccccc4C3=O)cc2)c(=O)[nH]c1=O	-12	-2	10	-1	0.2	-7
Cc1cc(=O)[nH]c(SCC(=O)c2ccc(O)c(O)c2)n1	-11	0	-24	8	-0.8	5
COc1ccc(OC)c(/C=N/c2oc(-c3ccco3)c(-c3ccco3)c2C#N)c1	4	-18	-27	24	2.5	15
FC(F)(F)c1cccc(Nc2nc(N3CCOCC3)nc(N3CCOCC3)n2)c1	-14	2	15	-30	1.4	1
Cc1c(C(=O)NCc2ccccc2C(F)(F)F)sc(=O)n1Cc1ccc2ccccc2c1	.	-6	-11	.	0.5	0
O=C(CN1C(=O)c2ccccc2C1=O)Nc1sc2c(c1C(=O)NCC1CCCO1)CCC2 (stereo not given)	-1	6	3	5	1.1	2
O=C(C1=C[C@H](C2CC2)C[C@H](OCCCCO)O1)N1CCN(Cc2ccccc2)CC1	8	-1	1	-9	0.1	-17
CCC(C(=O)N1CCCCCC1)n1nc(C)n2c(cc3occc32)c1=O (stereo not given)	1	8	3	-14	-1.2	-7
CCCCOc1ccc(C(=O)NCC(=O)NCC(=O)OCC)cc1	-4	6	2	-2	-0.7	-10
Cc1cccc(Oc2nccc(C(F)(F)F)c2C(=O)Nc2ccc(F)cc2F)c1	.	4	0	-10	3.2	1
Nc1nc(SCc2ccc(Cl)cc2Cl)c2ncn(C3OC(CO)C(O)C3O)c2n1 (stereo not given)	.	5	-2	2	-0.7	3
COCC(=O)N1C[C@H]2CON(C)[C@H]2C[C@H]1c1ccc(N2CCCCC2)cc1	.	6	10	.	-0.8	-8
Cc1[nH]c2ccccc2c1CCNC(=O)c1ccc2nccnc2c1	22	-7	-8	-3	-0.1	-4
COc1ccc(OC)c(C2CC(=O)OC3=C2C(=O)CC(C)(C)C3)c1 (stereo not given)	17	4	4	-12	0.4	-6
C=CCNC(=O)c1ccccc1NS(=O)(=O)c1ccc(SC)cc1	-8	9	1	12	-0.2	-16
CCc1ccc(NC(=O)CSc2nc(NS(=O)(=O)c3ccccc3)cc(=O)[nH]2)cc1	0	1	-13	-1	2.2	-2
COC(=O)C1=CNC=C(C(=O)OC)C1c1cccc2ccccc12	-17	8	9	13	3.9	-3
